DUX4 txn inh: inhibitors of DUX4-driven ZSCAN4 reporter expression, primary screen, 293T cells, Gaussia and Italica luciferase | 293T-iDUX4 ZSCAN4-Gaussia luciferase reporter, 24 h; stronger effect = lower value | activity change, negative = inhibition, % (test concentration not listed) | 37,000 compounds, 0.8% hits | AID 1224904, 2016;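 active means -10% or lower and over 25 points stronger than a control reporter; inconclusive means -10% or lower with a smaller gap; inactive means above -10%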;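 further: 0% = median of neutral control wells and -100% = median of positive control wells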
DUX4 txn inh difference: also measured in DUX4 txn inh; calls as there; Gaussia minus Italica difference, %; measured here: selective DUX4 reporter inhibition;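 worked out from the two reporters; negative = selective loss of the DUX4 reporter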
DUX4 txn inh control: also measured in DUX4 txn inh; calls as there; activity change, negative = inhibition, %; measured here: Italica tet-on control reporter;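 0 = neutral control and -100 = positive control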
Numbers without * were called inactive.

Results for Cc1noc(C)c1S(=O)(=O)Nc1ccc2c(c1)C(=O)N([C@H](C)CO)C[C@@H](C)[C@@H](CN(C)C(=O)Nc1ccc3c(c1)OCO3)OCCCC[C@@H](C)O2 ?
DUX4 txn inh: 2.0; DUX4 txn inh difference: 1.3; DUX4 txn inh control: 0.7

How did Cc1ccccc1-c1cnc2c(c1)C(=O)N([C@@H](C)CO)C[C@@H](C)[C@@H](CN(C)C(=O)c1ccncc1)O2 do in these assays?
DUX4 txn inh: -2.9; DUX4 txn inh difference: -5.3; DUX4 txn inh control: 2.5

What do the screens show for `C[C@H](CO)N1C[C@H](C)[C@H](CN(C)Cc2ccc3c(c2)OCO3)Oc2ccc(NC(=O)C3CCCCC3)cc2C1=O`?
DUX4 txn inh: -1.9; DUX4 txn inh difference: 2.3; DUX4 txn inh control: -4.2

What do the screens show for `CNC[C@@H]1Oc2ccc(NS(=O)(=O)c3ccc(Cl)cc3)cc2CC(=O)N([C@@H](C)CO)C[C@H]1C`?
DUX4 txn inh: -1.5; DUX4 txn inh difference: -2.4; DUX4 txn inh control: 0.8

What do the screens show for `C[C@@H](NC(=O)C[C@H]1C=C[C@@H](NS(=O)(=O)c2cccc(F)c2)[C@H](CO)O1)c1ccccc1`?
DUX4 txn inh: -2.4; DUX4 txn inh difference: 1.1; DUX4 txn inh control: -3.4

What do the screens show for `C[C@@H]1CN([C@@H](C)CO)C(=O)c2cc(C#CC3CCCC3)cnc2O[C@H]1CN(C)C(=O)Cc1ccccn1`?
DUX4 txn inh: 7.3; DUX4 txn inh difference: 1.8; DUX4 txn inh control: 5.5

Results for COc1cccc(-c2ccc([C@H]3[C@H]4CN(CC5CC5)CCCCN4[C@H]3CO)cc2)c1 ?
DUX4 txn inh: 12.5; DUX4 txn inh difference: 13.9; DUX4 txn inh control: -1.3

How did CC(=O)NC[C@H]1[C@@H](c2ccc(C#Cc3ccccc3F)cc2)[C@@H](CO)N1C(C)=O do in these assays?
DUX4 txn inh: 2.4; DUX4 txn inh difference: 2.4; DUX4 txn inh control: 0.1

How did Cc1ccccc1-c1cnc2c(c1)C(=O)N([C@H](C)CO)C[C@@H](C)[C@H](CN(C)Cc1ccccc1F)O2 do in these assays?
DUX4 txn inh: -2.3; DUX4 txn inh difference: 1.1; DUX4 txn inh control: -3.4

What do the screens show for `Cc1ccc(S(=O)(=O)Nc2ccc3c(c2)C(=O)N([C@@H](C)CO)C[C@H](C)[C@@H](CN(C)Cc2ccc4c(c2)OCO4)OCCCC[C@H](C)O3)cc1`?
DUX4 txn inh: inconclusive

Molecules shown so far containing sulfur, in the order listed:
Results for Cc1noc(C)c1S(=O)(=O)Nc1ccc2c(c1)C(=O)N([C@H](C)CO)C[C@@H](C)[C@@H](CN(C)C(=O)Nc1ccc3c(c1)OCO3)OCCCC[C@@H](C)O2 ?
DUX4 txn inh: 2.0; DUX4 txn inh difference: 1.3; DUX4 txn inh control: 0.7

What do the screens show for `CNC[C@@H]1Oc2ccc(NS(=O)(=O)c3ccc(Cl)cc3)cc2CC(=O)N([C@@H](C)CO)C[C@H]1C`?
DUX4 txn inh: -1.5; DUX4 txn inh difference: -2.4; DUX4 txn inh control: 0.8

What do the screens show for `C[C@@H](NC(=O)C[C@H]1C=C[C@@H](NS(=O)(=O)c2cccc(F)c2)[C@H](CO)O1)c1ccccc1`?
DUX4 txn inh: -2.4; DUX4 txn inh difference: 1.1; DUX4 txn inh control: -3.4

What do the screens show for `Cc1ccc(S(=O)(=O)Nc2ccc3c(c2)C(=O)N([C@@H](C)CO)C[C@H](C)[C@@H](CN(C)Cc2ccc4c(c2)OCO4)OCCCC[C@H](C)O3)cc1`?
DUX4 txn inh: inconclusive

The results go on:
What do the screens show for `O=C(O)C[C@@H]1C[C@@H]2c3cc(NC(=O)C4CCC4)ccc3O[C@@H]2[C@@H](CO)O1`?
DUX4 txn inh: -1.2; DUX4 txn inh difference: -2.8; DUX4 txn inh control: 1.7

Results for CCCNC(=O)[C@@H]1[C@@H](CO)[C@@H]2Cn3c(ccc(-c4ccccc4F)c3=O)[C@H]1N2C(=O)CC ?
DUX4 txn inh: 8.3; DUX4 txn inh difference: 3.0; DUX4 txn inh control: 5.3

Results for C[C@@H]1CN([C@@H](C)CO)C(=O)c2cc(-c3ccc(C(=O)N(C)C)cc3)cnc2O[C@@H]1CN(C)C(=O)c1cccnc1 ?
DUX4 txn inh: -0.5; DUX4 txn inh difference: -6.8; DUX4 txn inh control: 6.2

Results for O=C(c1ccc2c(c1)OCO2)N1CC2(C1)[C@H](c1ccccc1)[C@@H](CO)N2C(=O)C1CCCC1 ?
DUX4 txn inh: -2.4; DUX4 txn inh difference: 0.3; DUX4 txn inh control: -2.7

How did O=C(c1ccccc1)N1CC2(C1)[C@H](c1ccccc1)[C@H](CO)N2C(=O)CC1CC1 do in these assays?
DUX4 txn inh: -6.3; DUX4 txn inh difference: -0.7; DUX4 txn inh control: -5.6

How did COc1ccc2c3c(n(C)c2c1)[C@@H](CO)N(Cc1ccccc1)CC31CN(C(=O)c2ccccc2F)C1 do in these assays?
DUX4 txn inh: inconclusive

Results for C[C@H](CO)N1C[C@H](C)[C@@H](CN(C)Cc2ccc(C(=O)O)cc2)OCc2ccccc2-c2ccccc2C1=O ?
DUX4 txn inh: 9.2; DUX4 txn inh difference: 5.9; DUX4 txn inh control: 3.3

How did COc1cccc(S(=O)(=O)N(C)C[C@@H]2OCc3ccccc3-c3ccccc3C(=O)N([C@H](C)CO)C[C@H]2C)c1 do in these assays?
DUX4 txn inh: 8.4; DUX4 txn inh difference: 5.0; DUX4 txn inh control: 3.4

How did COCCNC(=O)[C@@H]1[C@@H](CO)[C@@H]2Cn3c(ccc(-c4ccccc4)c3=O)[C@H]1N2C do in these assays?
DUX4 txn inh: 1.1; DUX4 txn inh difference: -0.4; DUX4 txn inh control: 1.6

How did O=C(C[C@@H]1C[C@@H]2c3cc(NC(=O)CC4CC4)ccc3O[C@@H]2[C@@H](CO)O1)NCc1cccc(F)c1 do in these assays?
DUX4 txn inh: -7.4; DUX4 txn inh difference: -7.8; DUX4 txn inh control: 0.5

What do the screens show for `O=C(CC(F)(F)F)N1C[C@@H]2[C@H](c3ccccc31)[C@@H](CO)N2C(=O)c1ccncc1`?
DUX4 txn inh: 4.5; DUX4 txn inh difference: 8.2; DUX4 txn inh control: -3.7

What do the screens show for `COCC(=O)N1CC2(C1)[C@H](c1ccc(-c3ccc(F)cc3)cc1)[C@H](CO)N2C(C)=O`?
DUX4 txn inh: -1.8; DUX4 txn inh difference: 1.4; DUX4 txn inh control: -3.2

How did CCC(=O)N1[C@@H](CO)[C@@H]2c3ccccc3N(C(=O)Nc3ccccc3Cl)C[C@@H]21 do in these assays?
DUX4 txn inh: -0.9; DUX4 txn inh difference: 4.6; DUX4 txn inh control: -5.5

What do the screens show for `C/C=C/c1ccc([C@H]2[C@@H](CO)N(C(=O)CC3CC3)[C@H]2CNC(C)C)cc1`?
DUX4 txn inh: -1.7; DUX4 txn inh difference: -0.2; DUX4 txn inh control: -1.5

How did O=C(C[C@@H]1C[C@H]2c3cc(NC(=O)NC4CCCC4)ccc3O[C@H]2[C@@H](CO)O1)NCc1ccc2c(c1)OCO2 do in these assays?
DUX4 txn inh: -1.9; DUX4 txn inh difference: -3.1; DUX4 txn inh control: 1.2

Results for CN(C)C(=O)c1cccc(-c2ccc([C@H]3[C@@H](CO)N4CCCCN(C(=O)C5CCC5)C[C@H]34)cc2)c1 ?
DUX4 txn inh: 11.6; DUX4 txn inh difference: -0.7; DUX4 txn inh control: 12.4

How did CCC(=O)N1CC[C@@H]2[C@H](CO)Nc3ccc(-c4cccc(C#N)c4)cc3[C@@H]21 do in these assays?
DUX4 txn inh: inconclusive

How did C/C=C/c1ccc([C@@H]2[C@@H](CO)N(C(=O)NC(C)C)C23CN(Cc2ccc(OC)cc2)C3)cc1 do in these assays?
DUX4 txn inh: inconclusive

What do the screens show for `CN(C)C(=O)[C@@H]1[C@@H](CO)[C@@H]2Cn3c(cccc3=O)[C@H]1N2CC1CCCC1`?
DUX4 txn inh: 2.7; DUX4 txn inh difference: 0.3; DUX4 txn inh control: 2.5

What do the screens show for `Cc1ccccc1S(=O)(=O)N1[C@@H](C#N)[C@@H](c2ccc(C#CC3CCCCC3)cc2)[C@@H]1CO`?
DUX4 txn inh: -1.6; DUX4 txn inh difference: 1.9; DUX4 txn inh control: -3.5

Results for Cc1cc(C(=O)Nc2ccc3c(c2)C(=O)N(C)[C@H]2CC[C@H](CC(=O)NCc4ccc(-c5ccccc5)cc4)O[C@@H]2CO3)no1 ?
DUX4 txn inh: -0.9; DUX4 txn inh difference: -4.7; DUX4 txn inh control: 3.9

How did COCC#Cc1ccc([C@@H]2[C@@H](CO)N3C(=O)CN(C(=O)Nc4ccc(F)cc4)C[C@H]23)cc1 do in these assays?
DUX4 txn inh: 9.1; DUX4 txn inh difference: 3.2; DUX4 txn inh control: 5.9

Results for COCC(=O)N1[C@@H]2CNc3ccccc3[C@@H]2[C@@H]1CO ?
DUX4 txn inh: 6.8; DUX4 txn inh difference: 5.9; DUX4 txn inh control: 0.9

How did C[C@@H]1CCCCO[C@H](CN(C)CC2CCCCC2)[C@H](C)CN([C@H](C)CO)C(=O)c2cc(NC(=O)CCC(F)(F)F)ccc2O1 do in these assays?
DUX4 txn inh: -0.3; DUX4 txn inh difference: 0.0; DUX4 txn inh control: -0.3

Results for CCC(=O)N1[C@H](CO)[C@@H](c2ccc(-c3cccc(F)c3)cc2)[C@H]1CNC(C)=O ?
DUX4 txn inh: 2.9; DUX4 txn inh difference: 1.1; DUX4 txn inh control: 1.8

What do the screens show for `Cc1cccc(S(=O)(=O)N2C[C@H]3[C@@H](c4ccccc42)[C@H](CO)N3C(=O)CC2CC2)c1`?
DUX4 txn inh: 0.3; DUX4 txn inh difference: -1.7; DUX4 txn inh control: 2.0

What do the screens show for `COc1ccccc1CN1[C@@H](CO)[C@@H]2c3ccccc3N(C(=O)c3ccc(F)cc3)C[C@@H]21`?
DUX4 txn inh: 2.5; DUX4 txn inh difference: 1.6; DUX4 txn inh control: 0.9

What do the screens show for `O=C(C[C@H]1CC[C@@H]2NC[C@@H](O)COC[C@H]2O1)Nc1ccccc1`?
DUX4 txn inh: 11.8; DUX4 txn inh difference: 6.0; DUX4 txn inh control: 5.8

What do the screens show for `C[C@@H]1CN([C@@H](C)CO)C(=O)c2cc(C#CC3CC3)cnc2O[C@@H]1CN(C)C(=O)c1ccc(F)cc1`?
DUX4 txn inh: -1.8; DUX4 txn inh difference: -0.4; DUX4 txn inh control: -1.4

How did Cc1ccccc1-c1ccc([C@H]2[C@H]3CN(C(=O)c4ccc(F)cc4)CC(=O)N3[C@H]2CO)cc1 do in these assays?
DUX4 txn inh: -8.0; DUX4 txn inh difference: 1.8; DUX4 txn inh control: -9.8

Results for O=C(C[C@@H]1CC[C@@H]2[C@H](COC[C@H](O)CN2Cc2ccc(Cl)cc2)O1)Nc1nccs1 ?
DUX4 txn inh: -8.9; DUX4 txn inh difference: -12.0; DUX4 txn inh control: 3.0

How did O=C([C@H]1[C@H](CO)[C@H]2Cn3c(cccc3=O)[C@H]2N1C(=O)C1CCCCC1)N1CCOCC1 do in these assays?
DUX4 txn inh: -2.5; DUX4 txn inh difference: -3.7; DUX4 txn inh control: 1.3

Results for COCC(=O)N1CC2(C1)[C@@H](c1ccc(-c3ccccc3)cc1)[C@H](CO)N2C(=O)COC ?
DUX4 txn inh: 1.5; DUX4 txn inh difference: -3.9; DUX4 txn inh control: 5.4

What do the screens show for `CN1C(=O)c2cc(NC(=O)Nc3ccc(Cl)cc3)ccc2OC[C@H]2O[C@@H](CC(=O)NCCN3CCCCC3)CC[C@@H]21`?
DUX4 txn inh: -3.5; DUX4 txn inh difference: -2.4; DUX4 txn inh control: -1.1

What do the screens show for `COCC(=O)N1C[C@@H](C)[C@H](OC)CN(C)C(=O)c2ccc(NC(=O)Nc3cccc(F)c3)cc2OC[C@H]1C`?
DUX4 txn inh: -9.7; DUX4 txn inh difference: -13.1; DUX4 txn inh control: 3.4

What do the screens show for `COc1ccc2c3c([nH]c2c1)[C@@H](CO)N(C(=O)Nc1ccc(F)cc1)CC31CCN(C(=O)Nc2ccccc2)CC1`?
DUX4 txn inh: 5.0; DUX4 txn inh difference: 1.3; DUX4 txn inh control: 3.7

What do the screens show for `C[C@@H]1CCCCO[C@@H](CN(C)C(=O)CCCN(C)C)[C@H](C)CN([C@@H](C)CO)C(=O)c2cc(NC(=O)CCC(F)(F)F)ccc2O1`?
DUX4 txn inh: 0.5; DUX4 txn inh difference: -0.4; DUX4 txn inh control: 0.9

How did COc1ccc2c3c(n(C)c2c1)[C@@H](CO)N(Cc1ccccc1)CC31CN(C(=O)C2CC2)C1 do in these assays?
DUX4 txn inh: 3.9; DUX4 txn inh difference: -8.0; DUX4 txn inh control: 11.9

What do the screens show for `COCC(=O)Nc1ccc2c(c1)[C@H]1C[C@H](CC(=O)N[C@H](C)c3ccccc3)O[C@@H](CO)[C@H]1O2`?
DUX4 txn inh: 9.0; DUX4 txn inh difference: 5.3; DUX4 txn inh control: 3.7

Results for CC(=O)NC[C@H]1[C@@H](c2ccc(C#C[C@@H](C)O)cc2)[C@@H](CO)N1Cc1ccccn1 ?
DUX4 txn inh: 0.6; DUX4 txn inh difference: 1.3; DUX4 txn inh control: -0.6

How did CCCNC(=O)N1CC2(CN(C(=O)C3CCC3)C2)c2c([nH]c3cc(OC)ccc23)[C@H]1CO do in these assays?
DUX4 txn inh: 25.0; DUX4 txn inh difference: 10.3; DUX4 txn inh control: 14.7

How did C/C=C/c1cnc2c(c1)C(=O)N([C@H](C)CO)C[C@H](C)[C@@H](CN(C)C(=O)NC1CCCC1)O2 do in these assays?
DUX4 txn inh: 4.1; DUX4 txn inh difference: 5.4; DUX4 txn inh control: -1.2

Results for O=C(NCC[C@@H]1CC[C@H](NS(=O)(=O)c2ccc(F)cc2)[C@@H](CO)O1)c1ccc2c(c1)OCO2 ?
DUX4 txn inh: 0.4; DUX4 txn inh difference: -0.2; DUX4 txn inh control: 0.6

Not all compounds are listed; the hit share may differ from the screen's.
